SARS PLpro yeast = inhibitors of SARS-CoV papain-like protease in yeast; Potency, µM (titrated, usually from 32.9 µM), for inactives: top-dose activity, positive = growth rescue; hit rate 0.19% among 330,000; S. cerevisiae expressing SARS-CoV PLpro, growth rescue; control for the full effect not named in the record; AID 485353; active means well fitted rising curve with a large enough effect; inconclusive means small, poorly fitted or top-dose-only effect; inactive means no such curve, though single readings can be large or run the other way; also: 0% is about no effect; nearly all actives have a fitted effect of over 55% in size; growth read by luminescence after 48 h
2A StopGo = FMDV 2A StopGo reporter, luciferase signal; human cells with a luciferase reporter of 2A StopGo recoding; control for the full effect not named in the record; Potency, µM (top dose mostly 57.9 µM), for inactives: at the highest dose signal change, negative = less light; hit rate 1.2% among 410,000; active = well fitted falling curve with a large enough effect; inconclusive = small, poorly fitted or top-dose-only effect; inactive = no such curve, though single readings can be large or run the other way; tested in HEK293T cells; also: % is scaled to controls: 0 for no effect and ±100 for the full control effect; nearly all actives have a fitted effect of over 45% in size; luciferase light after 4 h
RE007 growth inh = less growth of the S. pombe RE007 Vpr strain. hit rate 0.21% among 360,000. Potency, µM (top dose mostly 92.2 µM), inactives show top-dose activity change, negative = less growth. S. pombe RE007 Vpr strain, BacTiter-Glo ATP luminescence, 24 h; control for the full effect not named in the record; active = well fitted falling curve with a large enough effect; inconclusive = small, poorly fitted or top-dose-only effect; inactive = no such curve, though single readings can be large or run the other way;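 also: % is scaled to controls: 0 for no effect and ±100 for the full control effect; nearly all actives have a fitted effect of over 50% in size; the assay follows cell death caused by Vpr and the record does not say whether a fall means rescue or toxicity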
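Fission yeast strain RE007, carrying one chromosomally integrated HIV-1 vpr copy, was seeded at OD 0.01 in PMG+AL medium with 23 nL pinned compound. After 24 h at 30 °C and 99% humidity, viability was read by BacTiter-Glo luminescence.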
Lassa entry inh = inhibitors of Lassa virus binding or cell entry. Lassa virus pseudotype entry inhibition, cell reporter; control for the full effect not named in the record. Potency, µM (top dose mostly 37.9 µM), for the others: at the highest dose activity change, negative = inhibition, most hits filed as inhibitors. hit rate 1.2% among 300,000. AID 540256; active means well fitted inhibition curve with a large enough effect; inconclusive means small, poorly fitted or top-dose-only effect, or effect the other way; inactive means flat fitted curve, though single readings scatter; tested in HEK293 cells; also: % is scaled to controls: 0 for no effect and ±100 for the full control effect; nearly all actives have a fitted effect of over 50% in size; luciferase read-out
Cruzain noTriton = inhibitors of Trypanosoma cruzi cruzain without detergent; purified cruzain, Z-FR-AMC fluorescence, no detergent; P25779; Potency, µM, for the others: max response, negative = inhibition, usual class: inhibitors; hit rate 2.3% among 200,000;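 also: plate controls were enzyme without inhibitor for no effect and buffer without enzyme for full effect; nearly all actives have a fitted effect of over 40% in size; top concentration of the series not given in the record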
Target sequence (P25779 123-467 limits assumed): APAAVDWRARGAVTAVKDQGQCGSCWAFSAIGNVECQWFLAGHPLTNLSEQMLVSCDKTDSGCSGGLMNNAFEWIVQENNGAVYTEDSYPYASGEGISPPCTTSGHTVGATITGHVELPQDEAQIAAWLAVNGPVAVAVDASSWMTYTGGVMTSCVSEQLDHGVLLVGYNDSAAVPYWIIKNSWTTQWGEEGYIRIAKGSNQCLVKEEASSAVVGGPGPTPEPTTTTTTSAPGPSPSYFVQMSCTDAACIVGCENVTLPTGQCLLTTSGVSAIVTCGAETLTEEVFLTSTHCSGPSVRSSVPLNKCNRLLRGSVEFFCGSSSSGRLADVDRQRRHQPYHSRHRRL
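Detergent-free condition (0.00005% Triton X-100) in acetate buffer pH 5.5 with DTT. 1.5 nM enzyme and compound were pre-mixed 15 min, then 2 uM Z-FR-AMC substrate added; reaction progress from fluorescence change between first and third reads (60 s).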
NS1 function inh = influenza NS1 inhibition; Potency, µM (highest dose often 46.1 µM), for inactives: at the highest dose activity, positive = more growth; hit rate 0.4% among 270,000; S. cerevisiae slowed by influenza A NS1, growth recovery by OD600; AID 2326; active means well fitted rising curve with a large enough effect; inconclusive means small, poorly fitted or top-dose-only effect; inactive means no such curve, though single readings can be large or run the other way; also: nearly all actives have a fitted effect of over 50% in size
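In this qHTS, NS1 from influenza A is expressed in budding yeast, where it slows growth. Cells are switched from glucose to 2% galactose medium (pH 6.0, -URA), treated with compound, and growth recovery is read at OD600.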
Cruzain Triton = inhibitors of Trypanosoma cruzi cruzain with detergent | Potency, µM, inactives show max response, negative = inhibition, hits mostly inhibitors | hit rate 0.43% among 200,000 | purified cruzain, Z-FR-AMC fluorescence, 0.01% Triton | AID 1478 | P25779;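 also: plate controls were neutral wells for no effect and buffer without enzyme for full effect; nearly all actives have a fitted effect of over 40% in size; top concentration of the series not given in the record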
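Enzyme 1.5 nM, Z-FR-AMC 2 uM, NaOAc 100 mM pH 5.5, DTT 5 mM, Triton X-100 0.01%; 15 min RT compound preincubation; kinetic ex360/em450, 60 s delta.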
Marburg entry inh = Marburg virus entry inhibition | Marburg virus pseudotyped entry inhibition, cell reporter; control for the full effect not named in the record; about a third of the inactives were read at about 46 µM | Potency, µM (highest dose often 37.8 µM), inactives show at the highest dose activity change, negative = inhibition, usual class: inhibitors | hit rate 1.8% among 300,000 | AID 540276; active = well fitted inhibition curve with a large enough effect; inconclusive = small, poorly fitted or top-dose-only effect, or effect the other way; inactive = flat fitted curve, though single readings scatter; tested in HEK293 cells; about a fifth of its hits are not listed in these tables; also: % is scaled to controls: 0 for no effect and ±100 for the full control effect; luciferase read-out
Starred values were filed as active, the others as inactive; ? = inconclusive; . = no result given; & = joins results of further samples; [ ] = dose if it differs, or a comment. Unless noted, calls follow the shape of the dose curve; as a rule, active = well fitted curve in the direction sought with a large enough effect; inconclusive = small, poorly fitted or top-dose-only effect, or another doubt; inactive = no such curve, though single readings can be large; an effect the other way counts as inactive or inconclusive. Potency is read from the fitted curve at half-maximal effect.

SMILES	SARS PLpro yeast	2A StopGo	RE007 growth inh	Lassa entry inh	Cruzain noTriton	NS1 function inh	Cruzain Triton	Marburg entry inh
O=C(CSCC(=O)c1ccccc1)Nc1ccccc1Cl	6%	16%	3%	7%	-1%	-8%	-1.7%	4%[46.1 µM]
O=C(CSc1ccc2nnc(-c3ccncc3)n2n1)Nc1ccccc1F	4%	-5%	8%	.	-1%	2%	-1.7%	.
O=C(Nc1ncn[nH]1)c1ccccc1O	0%	-1%	-4%	.	.	-4%	.	.
OC[C@@H]1CCCN1Cc1nc(-c2cccs2)no1	0%	17%	-4%	.	.	-1%	.	.
COc1ccccc1-n1cnc2cc(NCc3cccs3)ccc21	-14%	0%	4%	-17%	2%	-54%	1.1%	?
CN1C(=O)NC(=O)/C(=C\C=C\c2ccccc2[N+](=O)[O-])C1=O	-6%	?	-5%	?	.	.	.	?
COc1ccc(C(=O)N/N=C/c2sc3ccccc3c2O)cc1	2.8µM*	34%[activator]	?	?	-14%	-25%	-2.7%	?
CC(C)CN(C(=O)COC(=O)C12CC3CC(CC(Cl)(C3)C1)C2)c1c(N)n(Cc2ccccc2)c(=O)[nH]c1=O	1%	?	20%	?	.	.	.	-22%
COC(=O)c1cc2occc2n1CC(=O)Nc1ccc(OC)c(OC)c1OC	9%	.	16%	1%	7%	4%	-2.3%	0%
COc1ccc(S(=O)(=O)N2CCOc3ccccc32)cc1	-1%	-12%	9%	.	.	-4%	.	.
Cc1c(-n2c(SCC(C)C)nc3ccccc3c2=O)c(=O)n(-c2ccccc2)n1C	-1%	0%	-8%	6%	.	5%	.	-28%[46.1 µM]
COC(=O)c1cccc(Nc2c(-c3ccc(O)cc3)nc3nc[nH]n23)c1	.	-8%	.	-18%[46.1 µM]	2%	.	-3.2%	.
O=C(Cn1cc(SCc2ccccc2Cl)c2ccccc21)N1CCCCCC1	.	-7%	.	?	?	.	-7.6%	.
C=C(C)[C@@H]1CC=C(C(=O)O)CC1	-1%	-15%	-7%[18.4 µM]	.	.	-41%	.	8%
CCOc1ccc(NS(=O)(=O)c2ccc(NC(=S)NC(=O)CC(C)C)cc2)cc1	-24%	20%	-13%	?	0%	14%	-12%	-21%
CCc1cc(=O)oc2cc(C)cc(OCC(=O)N3CCC(C(=O)NC(C)C)(c4ccccc4)CC3)c12	-6%	-29%	-6%	?	.	6%	.	?
CCOC(=O)C1CCCN(c2cc(C)nc3c(-c4ccccc4OC)c(C)nn23)C1 (stereo not drawn)	.	?	.	6%[46.1 µM]	-2%	.	-4.1%	.
COc1ccc(NC(=S)NCc2ccc3c(c2)OCO3)cc1	16%	27%	4%	-13%[46.1 µM]	.	.	.	13%[46.1 µM]
CC(=O)Cc1nsc(NC(=O)c2ccc(Br)o2)n1	-5%	.	-4%	13%	-13%	-4%	-1.7%	-3%
CN(C(=O)COc1nnc(-c2cccs2)c(-c2cccs2)n1)c1ccccc1	-3%	0%	-3%	3%	1%	1%	-9.4%	6%
COc1ccc(Cc2nnc(NC(=O)CSc3ccc(C)cc3)s2)cc1	1%	-3%	-9%	?	1%	0%	-4.7%	?
CC(=O)C1=C(O)C(=O)N(c2cccnc2)C1c1cccc([N+](=O)[O-])c1 (stereo not drawn)	1%	-12%	23%	-14%[46.1 µM]	.	-1%	.	4%[46.1 µM]
CCC(=O)Nc1cc(NC(=O)CSc2ncc(-c3ccc(F)cc3)n2Cc2ccco2)ccc1C	-2%	57%[activator]	-1%	?	?	-9%	-11%	3%&2%
CN(C(=O)CSc1nc2cc(C(=O)O)ccc2c(=O)n1Cc1ccccc1)C1CCS(=O)(=O)C1 (stereo not drawn)	-4%	-7%	-4%	.	.	3%	.	.
OCCNC(=S)NC1CCCCC1	-3%	5%	-6%	-5%	5%	1%	-1.8%	1%
Carrying on:
SMILES	SARS PLpro yeast	2A StopGo	RE007 growth inh	Lassa entry inh	Cruzain noTriton	NS1 function inh	Cruzain Triton	Marburg entry inh
COc1ccccc1NC(=O)N1CCCC(CNC(=O)c2ccccc2Cl)C1 (stereo not drawn)	0%	15%	-3%	6%[46.1 µM]	.	-11%	.	16%[46.1 µM]
CCOC(=O)c1ccc2[nH]c(C)cc(=O)c2c1	-1%	28%	-8%	6%	4%	-6%	-0.8%	-2%
COc1ccc(CCNC(=O)CSc2nnc(CNC(=O)c3cccs3)o2)cc1OC	0%	23%	-5%	3%	-2%	0%	-2.4%	-12%[46.1 µM]
S=C(Nc1ccc(Nc2ccccc2)cc1)NC1CCCCCC1	-3%	28µM*	7%	?	.	-4%	.	?
NC1=NC(=O)/C(=C\c2cccnc2)S1	-4%	-13%	-13%	9%	.	.	.	21%
COc1ccc(CNC(=O)C2CCCN(S(=O)(=O)c3cc(C)ccc3OC)C2)cc1 (stereo not drawn)	-10%	-10%	12%	2%	9%	-17%	1.6%	?
CN1CCN(C(=S)c2ccc(-c3cccc([N+](=O)[O-])c3)o2)CC1	0%	71%[activator]	7%	.	.	0%	.	.
COc1ccc(Cl)cc1NC(=O)c1c(NCc2ccc(C)o2)sc2c1CCC(C)C2 (stereo not drawn)	.	-2%	.	15%[46.1 µM]	-10%	.	-3.3%	.
O=C(CN1CCN(c2ccc(O)cc2)CC1)N(C1CC1)C1CCS(=O)(=O)C1 (stereo not drawn)	1%	-15%	-10%	23%	.	.	.	3%
O=C(Nc1cccc(F)c1)N1CCCCCC1	6%	6%	-3%	.	.	6%	.	.
CCN(C(C)=O)N(CC)c1nc(Cl)nc(NC(C)C)n1	7%	-11%	-1%	0%	0%	4%	-1.2%	-1%
Cc1cccc(NC(=O)C2CCCN(c3cnccn3)C2)c1 (stereo not drawn)	1%	-5%	24%	.	.	-9%	.	.
COc1ccc(S(=O)(=O)c2cnc3cc(OC)c(OC)cc3c2N2CCCC(C)C2)cc1 (stereo not drawn)	.	23%	.	.	?	.	-6.8%	?
COc1ccc(NC(=O)Nc2ccc3c(c2)N(C)C(=O)CS3)cc1Cl	4%	?	-14%	7%	-10%	7%	-6.9%	-1%
C/C(=N\NC(=S)NCc1ccccc1)c1ccc(C(C)(C)C)cc1	?	-11%	.	0.46µM*	-1%	8%	-5.9%	?
Cc1ccnc(NC2c3ccccc3C(=O)N2Cc2ccccc2Cl)c1 (stereo not drawn)	-5%	-15%	-10%	-29%	-5%	-6%	-2.6%	-20%
CC(C)c1nn2c(=O)cc(COC(=O)c3ccc(NC(=O)c4cccs4)cc3)nc2s1	.	15%	.	15%[46.1 µM]	-5%	.	0.5%	.
Clc1ccc2c(c1)N=C(N1CCNCC1)c1ccccc1N2	.	-15%&-16%	.	?	1%	.	-1.2%	?
COCCNc1nc2c(c(=O)n(C)c(=O)n2C)n1Cc1c(F)cccc1Cl	.	?	.	?	0%	.	0.4%	?
O=C(Nc1ccccc1N1CCCC1)C1CCN(S(=O)(=O)c2ccccc2)CC1	-6%	-23%	17%	-1%	.	.	.	0%
CC1=CC(C)C(COC(N)=O)(COC(N)=O)C(C)C1 (stereo not drawn)	3%	0%	-4%	3%	1%	?	5.3%	?
CCN(CC)c1ccc(/C=N/NC(=O)OC)c(O)c1	-23%	25%	-2%	?	0%	-62%	-8.8%	-5%
c1ccc2c3c(ccc2c1)OCC1CONC31 (stereo not drawn)	2%	26%	9%	0%[46.1 µM]	.	.	.	12%[46.1 µM]
CCC(C)NCCCOc1cc(Cl)ccc1Cl (stereo not drawn)	10%	-21%	-24%	?	6%	-12%	0.1%	?
CCN1C(=O)c2ccccc2S(=O)(=O)c2ccc(C(=O)NCc3cccnc3)cc21	0%	-18%	-11%	.	6%	-20%	-2.5%	-1%
(more compounds)
SMILES	SARS PLpro yeast	2A StopGo	RE007 growth inh	Lassa entry inh	Cruzain noTriton	NS1 function inh	Cruzain Triton	Marburg entry inh
CCOC(=O)C1CCN(C(=O)c2ccc(OCC)c(OCC)c2)CC1	2%	-2%	12%	0%	4%	-1%	6.5%	2%[46.1 µM]
N/C(CC(=O)Nc1ccc(F)cc1F)=N\OC(=O)c1cccs1	1%	-16%	-5%	.	.	-1%	.	.
O=C(c1ccco1)N1CCN(C(=O)c2snc3ccc(Cl)cc23)CC1	4%	-11%	3%	-2%	-12%	-15%	-1.2%	-9%
O=C(c1ccccc1)N1CCN(C(=O)c2nn3c(C(F)(F)F)cc(-c4ccco4)nc3c2Br)CC1	0%	-4%	5%	?	.	3%	.	11%[46.1 µM]
CN(C)CCCNc1ccc(S(N)(=O)=O)cc1[N+](=O)[O-]	0%	0%	3%	12%	-6%	16%	-3.3%	?
Cc1cc(C(=O)N/N=C/c2cccnc2)n[nH]1	1%	-3%	-14%	1%[46.1 µM]	.	0%	.	-1%[46.1 µM]
O=C(CCCn1c(SCc2cc(=O)n3ccccc3n2)nc2ccccc2c1=O)NCC1CCCO1 (stereo not drawn)	3%	1%	-21%	.	.	.	.	-1%[46.1 µM]
Cc1nn2c(C)c(C(=O)NCc3cccc(Br)c3)cnc2c1-c1ccccc1	.	-4%	.	?	0%	.	-7.5%	.
NC(=O)c1nsc(C(=O)N(Cc2cccnc2)C(C(=O)NCc2ccc(F)cc2)c2ccc(F)cc2)c1N (stereo not drawn)	0%	?	0%	?	.	-19%	.	?
COc1ccc(C(=O)C2CCCN(C3Cc4ccccc4C3)C2)c(OC)c1 (stereo not drawn)	-1%	-18%	?	-14%	.	0%	.	?
COc1ccccc1NC(=O)c1ccccc1SC	-4%	-16%	-21%	12%	11%	-7%	2.5%	?
Cc1ccc(-c2nnc(CSc3nnc(C)s3)o2)cc1	2%	48%[activator]	12%	15%	-8%	-87%	-0.7%	?
O=C(Nc1nc2c(F)cc(F)cc2s1)C1CCN(C(=O)c2ccc(F)cc2)CC1	-6%	-12%	-3%	23%	.	.	.	20%[46.1 µM]
Cc1cc(C)cc(N2CC(O)Cn3c2nc2c3c(=O)[nH]c(=O)n2C)c1 (stereo not drawn)	17%	-18%	1%	.	.	3%	.	.
CC(=O)Nc1ccc(NC(=O)C/C(C)=N/NC(=O)COc2cc(C)c(Br)cc2Br)cc1	-6%	-3%	-8%	14%[46.1 µM]	.	21%	.	?

Outcome played no part in choosing rows (roughly 4.8% active in at least one column).
